# Vaccinia mCherry = qHTS for Stage-Specific Inhibitors of Vaccinia Orthopoxvirus: mCherry Reporter Primary qHTS | Potency, µM (highest dose often 36.5 µM), for inactives: at the highest dose activity change, negative = inhibition, most hits filed as inhibitors | AID 720579, 2013 | Vaccinia virus mCherry reporter infection, fluorescence; about a quarter of the inactives have no number | hit rate 0.63% among 310,000; active = well fitted inhibition curve with a large enough effect; inconclusive = small, poorly fitted or top-dose-only effect; inactive = no such curve, though single readings can be large or run the other way; tested in A549 cells; also: nearly all actives have a fitted effect of over 35% in size; inactives centre near -10
# Vaccinia Venus = qHTS for Stage-Specific Inhibitors of Vaccinia Orthopoxvirus: Venus Reporter Primary qHTS | Vaccinia virus Venus reporter expression, fluorescence | Potency, µM (top dose mostly 36.5 µM), without a hit: top-dose activity change, negative = inhibition, actives largely listed as inhibitors | hit rate 0.46% among 330,000; active means well fitted inhibition curve with a large enough effect; inconclusive means small, poorly fitted or top-dose-only effect; inactive means no such curve, though single readings can be large or run the other way; tested in A549 cells; also: nearly all actives have a fitted effect of over 30% in size; inactives centre near -10
# The depositor's hits bear a star; i = inactive; u = inconclusive; x = not tested or not shown; [ ] = remark or other dose. % is scaled to controls: 0 for no effect and ±100 for the full control effect; potency is read from the fitted curve at half-maximal effect.
SMILES,Vaccinia mCherry,Vaccinia Venus
CC(C)c1c(O)nc(SCc2ccccc2)[nH]c1=O,x,17%
COc1ccc(S(=O)(=O)N2Cc3ccccc3CC2C(=O)Nc2ccc3c(c2)OCO3)cc1 (stereo not drawn),-7%,-18%
O=C(NC1CCN(Cc2ccccc2)C1)c1cnn(-c2ncc3c(n2)-c2ccccc2CC3)c1C1CC1 (stereo not drawn),-28%,-6%
CC(C)C[C@@H](CN1C(=O)C(=O)NC[C@@H]1CC(C)C)NC(=O)Cc1ccccc1,i,-5%
Fc1ccc(CCN2CCN=C2Nc2ccccc2)cc1,i,0%
COc1ccc2c(CC(=O)Nc3nc(C)cs3)coc2c1,-1%,-10%
COc1ccc(CCNC(=O)COc2ccc3c(C)cc(=O)oc3c2)cc1,i,-1%
Cc1ccc(C(=O)N2CCN(c3ccccc3)CC2)cc1NC(=O)c1ccco1,-17%,-9%
CCOC1C(=O)NC(=O)N1Cc1ccccc1 (stereo not drawn),-25%,-5%
Cc1ccc(C(=O)NC2CCCC2)cc1S(=O)(=O)N1CCCCC1,i,-19%
CCOP(=O)(OCC)/C(=N/OC(=O)c1ccc(OC)cc1)C(N)=O,-8%,-28%
COc1cc(C(C(=O)Nc2c(C)cccc2C)N(C)C(=O)c2ccc(-n3cnnn3)cc2)ccc1O (stereo not drawn),i,-14%
O=C(NCC1CCCO1)C(c1ccncc1)N(Cc1cccs1)C(=O)Cn1nnc(-c2ccc(F)cc2)n1 (stereo not drawn),-6%,-1%
O=C(O)COc1ccccc1/C=N/NC(=O)CNC(=O)c1ccco1,-14%[7.34 µM],0%[7.34 µM]
C[N+]1(CCC(=O)c2ccccc2)CCCCC1,-3%,3%
CC(/C=N/NC(=O)CSc1nc2ccccc2n1C)=C\c1ccco1,u,-20%
CC1CCCCN1CCNC(=O)c1ccc2c(c1)N(Cc1ccccc1)C(=O)c1ccccc1S2(=O)=O (stereo not drawn),-6%,-21%
CC12C=CC(=O)C=C1CCC1C2CCC2(C)C(C(=O)CO)CCC12 (stereo not drawn),i,-19%
CCN1C(=O)C2(C(C#N)=C(N)Oc3cc(C)oc(=O)c32)c2ccccc21 (stereo not drawn),i,-17%
CCn1c(CC(=O)Nc2ccccc2)n[nH]c1=S,-6%,-11%
CNCCC(Oc1ccc(C(F)(F)F)cc1)c1ccccc1 (stereo not drawn),u,u
O=S(=O)(c1ccc(SCc2c(F)cccc2Cl)nc1)N1CCCC1,-4%,-13%
COc1ccc(Cl)cc1NC(=O)COC(=O)C(CC(C)C)N1C(=O)C2CC=CCC2C1=O (stereo not drawn),i,u
CCOCCCNC(=O)CCCn1nc(C)n2c(cc3sccc32)c1=O,-3%,-9%
CC1Cc2nc(SCC(=O)N3CCCC3)n(C)c(=O)c2S1 (stereo not drawn),0%,-1%
COc1cccc(C2=NN(S(C)(=O)=O)C(c3cn(-c4ccccc4)nc3-c3cccs3)C2)c1 (stereo not drawn),-4%,-11%
O=C(Nc1ccc(C(=O)N2CCC(O)(c3ccc(Cl)c(C(F)(F)F)c3)CC2)cc1)c1ccc(Br)o1,-22%,u
Cc1cccc(-n2c(/C=C/c3ccc([N+](=O)[O-])o3)nc3ccccc3c2=O)c1,-7%,-10%
CC(C)NC(=O)Cn1cc(C(=O)c2ccccc2F)c2ccccc21,0%,-5%
C=Cn1ccnc1P(=S)(c1ccc2c(c1)c1ccccc1n2CC)c1nccn1C=C,-6%,-28%
CCCCN(C)CCOc1ccccc1OCC,-19%,-10%
CC1CCN(S(=O)(=O)c2cccc(C(N)=O)c2)CC1,i,-2%
C/C(=N/NC(=O)CN1CCN(Cc2ccccc2Cl)CC1)c1ccncc1,-26%,-11%
CNC(=O)CSc1nnc(-c2cccnc2)n1CCc1ccccc1,-10%,-8%
CCOC(=O)c1c(-c2ccc(C)cc2)csc1NC(=O)CCSc1nnc2ccccn12,-8%,-4%
CN1CCN(CC(=O)c2ccccc2F)CC1,-4%,8%
CC(=O)N1c2nc(-c3ccco3)nn2C2(CCCCC2)[C@@H]2CCCC[C@@H]21,-1%,3%
CC(C)(CO)CN1CCC(n2nccc2NC(=O)C2CCCC2)CC1,i,-3%
S=c1nc2ccccc2c2nc(-c3ccccc3Br)[nH]n12,-8%,-17%
COc1ccc(C(=O)N/N=C(\C)Cn2cnc([N+](=O)[O-])n2)cc1,-12%,-10%
COC(=O)N/N=C/c1cccnc1,-15%,-7%
Nc1ncnc2nc(SCC(=O)Nc3ccccc3F)[nH]c12,-17%,-2%
CCOC(=O)C1=C[C@@H](C(C)(C)C)N(S(=O)(=O)c2ccc(C)cc2)[C@H]1c1ccc(Cl)c(Cl)c1,i,-5%
COCCNC(=O)CSc1c(C)cnc2c1c(=O)n(C)c(=O)n2C,-8%,1%
CCOC(=O)C1CCN(C(=O)C2CCN(S(=O)(=O)c3cc(Cl)ccc3Cl)CC2)CC1,-17%,-14%
Cc1ccc(C(O)c2ncc(-c3ccc4ccccc4c3)[nH]2)c(C)c1 (stereo not drawn),i,-14%
C[C@H](O)[C@@H]1C(=O)N2CCc3c([nH]c4ccccc34)[C@@H]2C[C@@H]1N(C)C(=O)c1ccco1,16%,-9%
COC(=O)c1c(-c2snnc2C)n[nH]c1C,i,-12%
C=CCN(CC=C)C(=O)C1CC(=O)N(c2ccc(Br)cc2)C1 (stereo not drawn),x,-7%
O=C(Nc1ccc(NC(=S)NC(=O)C(c2ccccc2)c2ccccc2)cc1)c1ccccc1,u,u
O=c1c(-c2ccccc2)c(O)c2c(n1-c1ccccc1)CCCC2,-1%,-19%
NC(N)=N/N=C/c1ccc(OCc2ccccc2Cl)cc1,u,u
CCC1Cc2c(nc(N)c3c(N)nc(N4CCCCC4)c(C#N)c23)O1 (stereo not drawn),-24%,u
CC1(C)CC(=O)C=C(Nc2cccc(F)c2)C1,i,-9%
CCC(C(=O)NCc1ccco1)n1nc(C)c2c(C)n(-c3ccc(C)cc3)nc2c1=O (stereo not drawn),-22%,-11%
Fc1ccc2cnc(-c3ccccc3)cc2c1,-5%,-7%
Cc1cc(Cl)ccc1OCC(=O)OCC(=O)Nc1ccc(Cl)cn1,i,5%
CC(=O)C(C)Oc1ccc2c3c(c(=O)oc2c1)CCCC3 (stereo not drawn),-10%,-18%
COc1ccccc1N(CC(O)CN(c1ccccc1)S(C)(=O)=O)S(=O)(=O)c1ccccc1 (stereo not drawn),-16%,-20%
Cc1c(C(=O)O)sc2nc(/C=C/c3cccc(O)c3)[nH]c(=O)c12,i,-9%

# Continuation.
SMILES,Vaccinia mCherry,Vaccinia Venus
Cc1c(Cl)c([N+](=O)[O-])nn1CCCC(=O)Nc1c(Cl)cccc1Cl,u,u
Cc1cc(C)c(S(=O)(=O)N2CCCOC2CNC(=O)C(=O)NCCC2=CCCCC2)c(C)c1 (stereo not drawn),-3%,-20%
COC(=O)c1ccc2[nH]c([C@H](C)O)c([C@H](C)O)c2c1,i,-7%
CN(C)c1nc2cc3c(cc2cc1CN(CC1CCCO1)C(=O)c1cccc(F)c1)OCO3 (stereo not drawn),-10%,3%
Cc1ccc(S(=O)(=O)NC(=O)C2(C)CCN2C(=O)Cc2ccc(-c3ccccc3)cc2)nc1 (stereo not drawn),-2%,8%
Cn1c(NCCO)nc2c1c(=O)n(Cc1ccc(F)cc1)c(=O)n2C,-14%,-5%
Cc1ccnc(SC2CC(=O)N(c3ccc(F)cc3)C2=O)n1 (stereo not drawn),-12%,-16%
COc1ccc(-c2nc(S(=O)(=O)c3ccc(Cl)cc3)c(N3CCCCCC3)o2)cc1,-9%,-11%
Cc1cc(=O)oc2c(C(=O)/C=C/c3ccccc3)c(O)ccc12,-18%,-12%
O=C(Nc1ccc2ccccc2c1)c1ccccc1O,u,u
N#CCc1nn(-c2ccc(Cl)cc2)c(N)c1C#N,-8%,4%
Cc1nnc(NC(=O)C2CCN(C(=O)c3ccco3)CC2)s1,-1%,-10%
CC(C)NC(=O)/C(C#N)=C\c1ccc(N(C)C)o1,-27%,-12%
CCCCn1c(C)cc2cc(O)ccc21,x,7%
COc1ccc(-c2cc(C(F)F)n3ncc(C(=O)n4ccnc4C)c3n2)cc1,-10%,u
COc1ccccc1N(CC(=O)Nc1ccccc1)S(=O)(=O)c1cccs1,-25%,-18%
COC(=O)c1cccc(-n2c(C)cc(C=O)c2C)c1C,-16%,-11%
CC(C)(C)NC(=O)CN(C(=O)C(=O)Nc1ccc2c(c1)OCCO2)N1CCOCC1,13%,2%
COc1cc(/C=C/c2ccc3cccc(O)c3n2)cc(Cl)c1OC,u,12%
O=C(Nc1nnc(-c2ccccn2)o1)c1cccc(Br)c1,-11%,-9%
CN(C)CCNC(=O)c1ccc(-n2c(-c3ccccc3)cc3c2CCCC3)cc1,-18%,-25%
CCCOc1ccc(CC2C(=O)Nc3ccc(Br)cc32)cc1 (stereo not drawn),-4%,-4%
O=C(NC(=S)NC1C2CC3CC(C2)CC1C3)C12CC3CC(CC(C3)C1)C2 (stereo not drawn),i,-19%
CCOC(=O)[C@]12CCCC=C1N(Cc1ccc3c(c1)OCO3)C(=O)[C@H](CC(=O)NCc1ccc(C)o1)C2,-28%,-13%
CCC(=O)c1ccc(OCC(=O)Nc2nc(C)cs2)cc1,i,-12%
Cc1nc2ccc(NC(=O)c3cccnc3)cc2s1,-6%,-3%
CCCSc1nnc(-c2ccccc2NC(=O)CC)c(=O)[nH]1,1%,-1%
COc1ccccc1OCCC(=O)OCC(=O)Nc1ccc(Br)cc1F,i,-11%
Cc1cc(NC(=O)C2CCN(C(=O)c3ccco3)CC2)ccc1Br,-4%,-22%
CCN(CC)C(=O)Cc1cc(C(=O)O)c2ccccc2n1,i,-7%
CCOC(=O)c1c(C)nc2sc3c(=O)n(-c4ccc(C(C)=O)cc4)cnc3c2c1-c1ccc(OC)cc1,x,-22%
OC[C@H]1O[C@H](OC[C@H]2O[C@H](OC[C@H]3O[C@H](O[C@]4(CO)O[C@H](CO)[C@@H](O)[C@@H]4O)[C@H](O)[C@@H](O)[C@@H]3O)[C@H](O)[C@@H](O)[C@H]2O)[C@H](O)[C@@H](O)[C@H]1O,i,-12%
CC(=O)Nc1cccc(N2C(=O)CCC2=O)c1,x,20%
O=S(=O)(Nc1ccncc1Cl)c1cc(Cl)ccc1Cl,i,-3%
O=C1OCCN1N1CCOC1=O,-12%,-8%
Cc1ccccc1OC1(C)CCN(Cc2ccc(-c3ccccn3)cc2)C1 (stereo not drawn),-17%,-16%
CN(C)Cc1c(C(=O)N/N=C/c2ccccc2OCc2c(F)cccc2Cl)nnn1-c1nonc1N,i,-10%
COc1ccc(-c2cc(=O)oc3cc(OCC(=O)NCC4CCC(C(=O)O)CC4)ccc23)cc1 (stereo not drawn),1%,-10%
CCOc1cc(C(=O)N2CCN(C/C=C/c3ccccc3)CC2)cc(OCC)c1OCC,-9%,-19%
CC(C(=O)O/N=C(\N)c1cccnc1)c1ccc([N+](=O)[O-])cc1 (stereo not drawn),-8%,-15%
O=[N+]([O-])c1cccc(-c2nnc3cccc(Cl)n23)c1,i,-16%
CN(C)C(=O)N1CCC(C(=O)NCC2CCCO2)CC1 (stereo not drawn),-12%,-8%
Cn1nc(-c2ccc(NCCO)c([N+](=O)[O-])c2)c2ccccc2c1=O,i,-9%
COCCN(C(=O)COC(=O)c1cc(C)n(-c2ccccc2)c1C)c1c(N)n(Cc2ccccc2)c(=O)[nH]c1=O,-15%,-6%

# Gathered by group: the compounds so far with a furan ring, fused or not.
SMILES,Vaccinia mCherry,Vaccinia Venus
COc1ccc2c(CC(=O)Nc3nc(C)cs3)coc2c1,-1%,-10%
Cc1ccc(C(=O)N2CCN(c3ccccc3)CC2)cc1NC(=O)c1ccco1,-17%,-9%
O=C(O)COc1ccccc1/C=N/NC(=O)CNC(=O)c1ccco1,-14%[7.34 µM],0%[7.34 µM]
CC(/C=N/NC(=O)CSc1nc2ccccc2n1C)=C\c1ccco1,u,-20%
O=C(Nc1ccc(C(=O)N2CCC(O)(c3ccc(Cl)c(C(F)(F)F)c3)CC2)cc1)c1ccc(Br)o1,-22%,u
Cc1cccc(-n2c(/C=C/c3ccc([N+](=O)[O-])o3)nc3ccccc3c2=O)c1,-7%,-10%
CC(=O)N1c2nc(-c3ccco3)nn2C2(CCCCC2)[C@@H]2CCCC[C@@H]21,-1%,3%
C[C@H](O)[C@@H]1C(=O)N2CCc3c([nH]c4ccccc34)[C@@H]2C[C@@H]1N(C)C(=O)c1ccco1,16%,-9%
CCC(C(=O)NCc1ccco1)n1nc(C)c2c(C)n(-c3ccc(C)cc3)nc2c1=O (stereo not drawn),-22%,-11%
Cc1nnc(NC(=O)C2CCN(C(=O)c3ccco3)CC2)s1,-1%,-10%
CC(C)NC(=O)/C(C#N)=C\c1ccc(N(C)C)o1,-27%,-12%
CCOC(=O)[C@]12CCCC=C1N(Cc1ccc3c(c1)OCO3)C(=O)[C@H](CC(=O)NCc1ccc(C)o1)C2,-28%,-13%
Cc1cc(NC(=O)C2CCN(C(=O)c3ccco3)CC2)ccc1Br,-4%,-22%

# Assay outcomes (PubChem BioAssay)
